# Bioassay records from PubChem.
# Rango-impB inh – qHTS Assay for Inhibitors of Rango (Ran-regulated importin-beta cargo) - Importin beta complex formation; Importin subunit beta-1 (Homo sapiens), Q14974; Rango CFP/YFP FRET sensor + importin beta, 45 min; Potency, µM (series often up to 92.2 µM), for the others: at the highest dose inhibition of complex formation; actives 0.031% (n = 340,000); AID 540263, 2011; active = rising FRET ratio curve, often small or poorly fitted; inconclusive = mostly compound fluorescence or quenching in the first reads; inactive = flat curves in all reads;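 note: potency is the fitted concentration of half-maximal effect; 0% = DMSO wells and 100% = buffer wells lacking importin beta; nearly all actives have a fitted effect of over 15% in size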
#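 FRET biosensor Rango (snurportin 1 IBB between N-terminal EYFP and C-terminal Cerulean), 50 nM in PBS/1 mM DTT/0.02% Tween-20/0.1% BSA, preincubated 5 min RT with compound; 0.125 microM importin beta added, 45 min RT, CFP/YFP FRET ratio read.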
# GLA inh pH 4.5 – qHTS Assay for Inhibitors of Human alpha-Galactosidase at pH 4.5; Alpha-galactosidase A (Homo sapiens), P06280; purified enzyme, 4-MU-alpha-Gal fluorescence, pH 4.5; activity change, negative = inhibition, % at 105 µM; AID 1467, 2008; 230,000 tested, under 10 active; inconclusive = small, poorly fitted or top-dose-only inhibition, or a rising curve; inactive = flat fitted curve, though single readings scatter; no compound was filed as active;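 note: 0% = full activity with enzyme and -100% = basal without enzyme; dose as in the result columns while the protocol names 77 µM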
# Target sequence (P06280 whole entry, looked up): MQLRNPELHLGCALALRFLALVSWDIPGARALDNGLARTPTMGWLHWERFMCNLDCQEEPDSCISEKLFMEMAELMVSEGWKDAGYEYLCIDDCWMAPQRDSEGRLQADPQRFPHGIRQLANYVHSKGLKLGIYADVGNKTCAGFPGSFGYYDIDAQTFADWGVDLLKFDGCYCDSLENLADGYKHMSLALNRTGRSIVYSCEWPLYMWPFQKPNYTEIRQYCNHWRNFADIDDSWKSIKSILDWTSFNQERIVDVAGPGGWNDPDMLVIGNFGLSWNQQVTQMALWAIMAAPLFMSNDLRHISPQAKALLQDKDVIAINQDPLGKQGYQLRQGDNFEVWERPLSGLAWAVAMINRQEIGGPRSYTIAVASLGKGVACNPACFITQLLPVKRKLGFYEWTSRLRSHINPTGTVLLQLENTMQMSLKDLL
# Rango dissoc inh – qHTS Assay for Inhibitors of RanGTP induced Rango (Ran-regulated importin-beta cargo) - Importin beta complex dissociation; actives 0.071% (n = 340,000); Potency, µM (top dose mostly 46.1 µM), for inactives: at the top dose activity change, negative = inhibition; Snurportin-1 (Homo sapiens) + GTP-binding nuclear protein Ran (Homo sapiens) + Importin …; Biochemical FRET Rango-importin beta, RanGTP-induced dissociation; active means falling FRET ratio curve, often poorly fitted, with flat reads before Ran was added; inconclusive means other falling curves, or compound fluorescence or quenching; inactive means flat or rising ratio curve;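 note: potency is the fitted concentration of half-maximal effect; % of control where 0% means no effect; nearly all actives have a fitted effect of over 45% in size; -100% = wells without RanGTP and RCC1; the record marks most hits as doubtful in a second field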
#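 Rango FRET biosensor (snurportin-1 IBB flanked by N-terminal EYFP and C-terminal CFP10) at 0.1 uM, with 0.25 uM importin beta in PBS, 1mM DTT, 0.02% Tween-20, 0.1% BSA. 0.6 uM Ran, 2mM GTP and 0.2 uM RCC1 were then added for 45 min at room temperature. Inhibition read as loss of FRET rise.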
# miR-21 reporter – qHTS Assay for Modulators of miRNAs and/orActivators of miR-21; HeLa miR-21 FLuc reporter, luciferase, 48 h; Potency, µM (titrated, usually from 38.3 µM), without a hit: at the highest dose reporter change, positive = more light; 340,000 tested, under 10 active; AID 2288, 2010; active = well fitted rising curve with a large enough effect; inconclusive = small, poorly fitted or top-dose-only effect; inactive = no such curve, though single readings can be large or run the other way;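 note: % of control where 0% means no effect; miR-21 action dims this reporter so a rising signal means less miR-21 action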
#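 Compounds were titrated across several concentrations (up to approximately 40 uM) and incubated 48 hours with HeLa miR-21-FLuc reporter cells (miR-21 target sequence downstream of FLuc, endogenous miR-21). Readout was firefly luciferase luminescence after lytic detection reagent.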
# * marks the source's active call; other numbers are inactive results; ? = inconclusive; nt = not tested or not shown; & = joins results of further samples. An excerpt; count on the stated rates, not on these rows.
SMILES,Rango-impB inh,GLA inh pH 4.5,Rango dissoc inh,miR-21 reporter
O=C(CSc1nnc(-c2ccccc2)c(-c2ccccc2)n1)NCC1CCCO1 (stereo not given),4.2%,nt,26%,nt
Cc1ccc(S(=O)(=O)NN=C2C3CC4CC(C3)CC2C4)cc1,12%,nt,0%,nt
COc1cc(/C=C\C(=O)NCc2ccc3[nH]c(C)cc3c2)cc(OC)c1OC,0.5%,9,-1%,0%
CCOc1cccc(C2NC(=S)NC(C)=C2C(=O)Nc2ccccc2)c1 (stereo not given),4.4%,-3,-13%,19%
CCN1CCN(C(=O)c2ccc3c(c2)N(Cc2ccccc2)C(=O)c2ccccc2S3=O)CC1 (stereo not given),0.0%,nt,-13%,-4%&-6%
CC(NCC(O)COCc1ccc(Cl)cc1)c1ccccc1 (stereo not given),3.3%,-2,0%,0%
CC(C)N(Cc1ccccc1)C(=O)CN1C(=O)NC2(CCCCCC2)C1=O,-3.3%,nt,2%,nt
COC(=O)CC(=O)O[C@H]1C=C[C@@H](NC(=O)OC(C)(C)C)C1,-0.3%,nt,1%,nt
Cc1cc2nc3ccc(N(C)C)cc3nc2cc1N,26%,nt,-14%,nt
CCOc1ccc(C(=S)NC2CCCCC2)cc1,2.5%,-4,-10%,-56%
Nc1nnc(-c2ccc(Cl)c([N+](=O)[O-])c2)s1,-1.6%,-5,-1%,-5%
CC(Oc1cccc(Cl)c1)C(=O)Nc1cc(=O)n(C)c(=O)n1C (stereo not given),-1.7%,1,5%,-5%
CCC(=O)NC(=S)Nc1ccc(N2CCOCC2)cc1,-1.8%,0,-7%,-56%
CCOC(=O)c1c(C)n(-c2ccccc2)c2ccc(OCCN(C)C)cc12,-3.3%,nt,1%,0%
COc1ccc(CNC(=O)C2(C)Cc3ccccc3C(=O)O2)cc1 (stereo not given),1.4%,3,4%,2%
COc1ccccc1C#Cc1ccc2c(=O)c3ccccc3n(C)c2c1,?,nt,?,-2%
CCCCCCCCCCCCCCCCCCNc1ccn(C2OC(COP(=O)(O)OCC3OC(n4cc(F)c(=O)[nH]c4=O)CC3O)C(O)C2O)c(=O)n1 (stereo not given),5.0%,nt,-11%,nt
COc1ccc(CC(=O)Nc2ccncc2Cl)cc1,10%,nt,-3%,0%
c1ccc(CCN2CN=C(Nc3nc4ccccc4o3)NC2)cc1,-1.3%,3,-3%,-14%
CCOc1ccc(NC(=O)c2ccc(NC(=O)c3ccc(CN4CCOCC4)cc3)cc2)cc1,-0.3%,-7,-16%,-3%
O=C(O)CCn1c(SCc2cccc3ccccc23)nc2ccccc21,-3.7%,-2,-12%,-32%
CC(C)(C)OC(=O)N1CCC(CC2CC(c3cccc(Br)c3)=NO2)(C(=O)NCC2CCCCC2)CC1 (stereo not given),-0.6%,nt,2%,-10%
Cc1ccc(CSc2ccc(S(=O)(=O)N3CCCCC3)cn2)cc1,6.6%,nt,10%,nt
NS(=O)(=O)c1ccc(NC(=O)CSc2ccc3ccccc3n2)cc1,2.6%,-1,11%,-17%&-5%
CC(=O)c1cccc(NC(=O)/C(=C\c2ccco2)NC(=O)c2cccs2)c1,1.4%,-7,-12%,-4%
CCOC(=O)c1ccc(NC(=O)N2CCN(C(=O)c3ccco3)CC2)cc1,1.0%,-3,2%,2%
COc1ccc(N=C2SC(CC(=O)Nc3ccccc3)C(=O)N2Cc2ccccn2)cc1 (stereo not given),2.5%,-2,2%,-4%
CN(C(=O)CSc1nnc(-c2ccncc2)n1C)C1CCS(=O)(=O)C1 (stereo not given),0.2%,4,-5%,0%
COc1ccc(/C=N/NC(=O)c2cnccn2)cc1O,-3.4%,-1,-10%,-57%
Cc1ccc(N2C(=O)N3[C@H]4c5ccccc5OC[C@@H]4[C@@H](c4ccccc4)[C@@]3(C)C2=O)cc1,-0.8%,nt,-7%,12%
C=CCSc1nnc2c(n1)OC=Nc1ccccc1-2,2.7%,0,4%,-6%
COc1cccc(/C=C(/C(=O)OCC(=O)NC2CCCC(C)C2C)c2ccccc2)c1 (stereo not given),0.5%,-6,-15%,20%
Fc1ccccc1-c1cc2cc3c(cc2cn1)OCO3,-1.9%,nt,-12%,nt
OCCN(Cc1nc(-c2ccc3c(c2)OCO3)no1)Cc1cccs1,1.6%,4,5%,-47%
COC(=O)c1c(NC(=O)c2c(Cl)cnn2C)sc(C)c1C,-1.8%,17,-13%,2%
COc1ccc(NC(=O)CSc2nnc(NC(=O)C3CCC3)s2)cc1,-1.9%,nt,-6%,3%
N#C/C(N=Nc1ccccc1O)=N\Nc1ccccc1O,0.2%,nt,5%,nt
CC(C)c1nc(C(=O)N2CCCC(N3CCN(c4cccc(Cl)c4)CC3)C2)cs1 (stereo not given),-0.4%,nt,-4%,18%
COCCN(C(=O)Cc1cccs1)C(C(=O)NCc1ccc(OC)cc1)c1ccc(OC)cc1 (stereo not given),-5.6%,-13,-12%,6%
O=C(NCCCN1CCOCC1)c1onc(CSc2ccccc2)c1C(=O)NCCCN1CCOCC1,0.7%,nt,-14%,nt
CN(Cc1ccccc1)C(=O)c1ccc(NC(=O)Cc2cccc(NC(=O)C3CCCN(C(=O)C4CCCCC4)C3)c2)cc1 (stereo not given),-0.9%,nt,-9%,nt
COc1cc(C(=O)NCC(=O)OCn2nnc3ccccc3c2=O)cc(OC)c1OC,-1.1%,-5,0%,-9%
CCOc1ccc(NC(=O)COC(=O)Cn2cnc3ccccc32)cc1,-3.2%,nt,-13%,nt
Cc1ccc(C(=O)CSc2nnc3ccccn23)c(C)c1,0.5%,6,-15%,-10%
CCOC(=O)Cc1csc(SCC(=O)Nc2cc(C)ccc2OC)n1,-2.3%,-2,3%,5%
O=C(CS(=O)(=O)c1cn(CC(=O)N2CCOCC2)c2ccccc12)NCc1ccccc1,-3.9%,nt,-15%,nt
COCCn1c(C)cc(C(=O)COc2cccnc2[N+](=O)[O-])c1C,2.3%,2,7%,0%
CCc1cc(Cn2nc(-c3ccccc3)cc2C(=O)NCC2CC2)on1,-0.8%,nt,-17%,nt
CCC(c1nnc(SCC(=O)Nc2ccc(N3CCOCC3)cc2)n1Cc1ccccc1)N(C)C (stereo not given),3.2%,nt,36%,nt
Cc1snnc1C(=O)NC(=S)Nc1ccccc1,-6.0%,-12,2%,-4%
CSCC[C@@H](C(=O)NCCCCCCCCCCC(=O)N1CCNCC1)n1cc(CCO)nn1,-0.4%,nt,1%,nt
CC(=O)N1CCc2ccc(S(=O)(=O)N3CCc4ccccc43)cc21,5.1%,-3,18%,-4%
Cc1cccc(NC(=O)COC(=O)c2ccc(S(=O)(=O)N3CCCCCC3)cc2)c1,1.0%,nt,-6%,nt
O=C(C1CCN(Cc2nc(Cc3cccc(F)c3)no2)CC1)N1CCOCC1,-1.5%,2,-1%,0%
Cc1cc(=O)[nH]c(N/N=C/c2ccc([N+](=O)[O-])cc2)n1,nt,-5,nt,-6%
Cc1ccc(S(=O)(=O)N2CCCOC2CNC(=O)C(=O)NCc2ccco2)cc1 (stereo not given),0.9%,3,8%,-4%
COc1cccc(Sc2ccccc2/C=N/NC(N)=O)c1,0.9%,-2,6%,17%
CCc1cccc(CC)c1NC(=S)N1CCn2cccc2C1c1cccnc1 (stereo not given),0.3%,2,0%,-2%
Cc1ccc(CN2CCSc3ccc(C(=O)NCc4cccnc4)cc32)cc1,-3.6%,21,-6%,2%
O=C(CNC(=O)c1ccco1)NCC(=O)OCc1cccc(Cl)c1,0.5%,-4,12%,-4%
# More entries.
SMILES,Rango-impB inh,GLA inh pH 4.5,Rango dissoc inh,miR-21 reporter
NC(=O)NC(=O)CN1C(=O)NC(c2ccccc2)(c2ccccc2)C1=O,-2.7%,nt,-11%,13%
COc1ccc(S(=O)(=O)NC(C)C(=O)NCc2ccncc2)cc1OC (stereo not given),-0.1%,nt,0%,0%
COC[C@@H]1NS(=O)(=O)c2ccc(Br)cc2O[C@H]1c1ccccc1,1.5%,nt,6%,nt
N[C@@H](CO)c1nnc([C@H](Cc2ccc(O)cc2)NC(=O)C2CCNCC2)o1,-3.3%,-11,-6%,-2%
COc1ccccc1NC(=O)CN1C(=O)COc2ccc(S(=O)(=O)N3CCOCC3)cc21,-0.9%,nt,7%,0%
COCCN(C(=O)CSc1nnc(-c2ccccc2F)o1)c1c(N)n(CC(C)C)c(=O)[nH]c1=O,3.6%,nt,0%,nt
O=C(CCC(=O)OCc1cccc([N+](=O)[O-])c1)Nc1ccc(F)cc1,-2.0%,10,11%,-1%
O=C(NCc1cccc(Cl)c1)c1ccc(CS(=O)Cc2ccc(Cl)cc2)o1 (stereo not given),0.7%,nt,11%,9%
CCOC(=O)N1CCN(C(=O)CSc2nnc(-c3ccc(C)c(C)c3)o2)CC1,5.1%,0,5%,-2%
COc1c(C)cc(C(=O)C2CCCN(C(=O)CCc3scnc3C)C2)cc1C (stereo not given),6.8%,1,13%,20%
COc1ccc(CNS(=O)(=O)c2ccc(S(=O)(=O)NC3CC3)cc2)cc1,1.7%,nt,3%,0%
Cc1cc(C(=O)Nc2sc3c(c2C#N)CCC(C)C3)no1 (stereo not given),-2.9%,-13,10%,-1%
C[C@H]1CN([C@@H](C)CO)C(=O)Cc2cc(NC(=O)CCC(F)(F)F)ccc2O[C@H]1CN(C)C(=O)Nc1ccc(F)cc1,0.1%,nt,-1%,nt
Cc1[nH]c2ccc(C(=O)N3CCN(Cc4ccccc4)CC3)cc2c1C,-0.8%,nt,-14%,-29%
CCCCCn1c(=O)[nH]c2cc(C(=O)NCCCN(CC)CC)ccc2c1=O,0.0%,?,0%,-3%
Cc1cc(NC(=O)CCC(=O)N(Cc2ccco2)C2(C(=O)NC3CCCCC3)CCCC(C)C2)no1 (stereo not given),-0.1%,nt,2%,7%
CCOC(=O)C1=CNS(=O)(=O)NC1c1ccc(OC(C)=O)cc1 (stereo not given),1.8%,nt,-5%,nt
O=C1NCC(O)=C1C=NCCCO,2.4%,-2,-5%,-3%
Cc1ccc(N(C)C(=O)CCNC(=O)Cn2cnc3ccccc3c2=O)cc1C,-0.8%,nt,14%,3%
COc1cc2c(c(OC)c1OC)-c1c(cc(OC)c(OC)c1OC)C[C@](C)(O)[C@@H](C)C2,-2.5%,-7,-7%,0%
CCOC(=O)CSc1nc2ccsc2c(=O)[nH]1,-1.3%,4,-17%,-1%
O=C(CSc1nnc2ccccn12)Nc1cccc(S(=O)(=O)N2CCOCC2)c1,1.4%,5,-6%,-11%
